Screening results: PubChem BioAssay, Broad Institute
MLL AF4-AF9 inh: blocks AF4 peptide binding to human AF9. P42568. inhibition, % at 10 µM. actives 0.47% (n = 350,000). AlphaScreen, biotin-AF4 peptide binding to FLAG-AF9;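 active = every replicate reaching a set inhibition limit, whatever the replicate mean, cut at about 25% in these data; inconclusive = mean inhibition reaches that limit but some replicates miss it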;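 note: 0% = plate neutral control median and 100% = total signal loss; the record names both 10 and 1 µM as test concentration; the first replicate is given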
Target sequence (P42568 whole entry, looked up): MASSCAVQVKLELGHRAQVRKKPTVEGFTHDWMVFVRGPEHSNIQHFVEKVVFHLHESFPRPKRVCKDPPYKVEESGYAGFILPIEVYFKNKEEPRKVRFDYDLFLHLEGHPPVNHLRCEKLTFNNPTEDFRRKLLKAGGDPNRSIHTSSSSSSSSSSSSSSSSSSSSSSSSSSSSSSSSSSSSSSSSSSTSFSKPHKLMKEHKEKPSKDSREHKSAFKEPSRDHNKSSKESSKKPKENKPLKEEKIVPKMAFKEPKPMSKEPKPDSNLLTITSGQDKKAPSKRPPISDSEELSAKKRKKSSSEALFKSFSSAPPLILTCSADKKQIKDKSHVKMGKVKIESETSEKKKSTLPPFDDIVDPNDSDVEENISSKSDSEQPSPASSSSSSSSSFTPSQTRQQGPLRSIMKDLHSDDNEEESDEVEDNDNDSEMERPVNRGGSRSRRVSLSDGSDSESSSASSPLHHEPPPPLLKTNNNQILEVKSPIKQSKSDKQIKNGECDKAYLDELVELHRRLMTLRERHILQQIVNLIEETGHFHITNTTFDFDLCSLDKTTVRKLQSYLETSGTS
Ecoli rRNA inh: inhibits bacterial ribosomal RNA function over humanized ribosomes; GFP signal change (wild-type ribosome), % (concentration not given with the values); actives 1.6% (n = 350,000); E. coli WT GFP vs humanized-ribosome RFP mutants, fluorescence, 24 h; hits give low values; DMSO median 0, no signal -100; AID 720706;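 active = significant combined selectivity score with lowered wild-type GFP, culture density cut under 30%, mutant RFP and density less affected; inactive = any of these conditions unmet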; note: one replicate is shown; some compounds called inactive have numbers as strong as hits
Ecoli rRNA inh OD600: further read-out of Ecoli rRNA inh, marked with its call; OD600 change, %; measured here: OD600 growth;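 optical density of the mix in the first replicate; 0 = DMSO median and -100 = no signal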
Ecoli rRNA inh RFP: recorded beside Ecoli rRNA inh, whose call it bears; RFP signal change, %; measured here: RFP humanized mutant strains;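 first replicate; 0 = DMSO median and -100 = no signal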
* hit, by the source's call; ? = inconclusive. Only part of the results is shown; the hit share may differ from the screen's.

MLL AF4-AF9 inh | Ecoli rRNA inh | Ecoli rRNA inh OD600 | Ecoli rRNA inh RFP | Molecule
-0.1 | -14.1 | -8.0 | 7.4 | O=C1NC[C@@H](CCCCN2C[C@H](Cc3ccc(O)cc3)N(CC3CCCCC3)C(=O)C2=O)N(Cc2ccccc2)C1=O
3.5 | -6.6 | -21.3 | 9.4 | COC(=O)[C@H]1[C@H](CO)[C@H]2Cn3c(ccc(-c4ccccc4)c3=O)[C@H]2N1CCc1ccccc1
-18.2 | 6.3 | 17.4 | -1.0 | CC(=O)N(C)C[C@H]1Oc2cc(C#CC(C)C)ccc2S(=O)(=O)N([C@@H](C)CO)C[C@@H]1C
-8.8 | -7.9 | -19.4 | 2.2 | COc1ccccc1-c1cn(CC[C@@H]2CC[C@H](NS(=O)(=O)c3ccccc3C)[C@@H](CO)O2)nn1
-0.5 | -0.2 | 11.9 | 0.1 | Cn1c(=O)c2[nH]c(CCCc3ccc([N+](=O)[O-])cc3)nc2n(C)c1=O
-1.5 | 0.0 | 3.4 | 0.8 | O=C(N[C@H]1CC[C@@H](CCn2cc(-c3ccccn3)nn2)O[C@@H]1CO)c1ccccc1
-1.3 | 8.1 | 6.0 | -1.6 | C[C@H](O)C#Cc1cnc2c(c1)C(=O)N([C@@H](C)CO)C[C@@H](C)[C@H](CN(C)CC1CCCC1)O2
-29.6 | 2.8 | 9.6 | -0.6 | CCNC(=O)[C@@H]1[C@@H](CO)[C@@H]2Cn3c(cccc3=O)[C@H]1N2C(=O)c1ccc(F)cc1

Some of the entries above in a different format:
Results follow in this order: MLL AF4-AF9 inh, Ecoli rRNA inh, Ecoli rRNA inh OD600, Ecoli rRNA inh RFP
COC(=O)[C@H]1[C@H](CO)[C@H]2Cn3c(ccc(-c4ccccc4)c3=O)[C@H]2N1CCc1ccccc1
→ 3.5, -6.6, -21.3, 9.4
CC(=O)N(C)C[C@H]1Oc2cc(C#CC(C)C)ccc2S(=O)(=O)N([C@@H](C)CO)C[C@@H]1C
→ -18.2, 6.3, 17.4, -1.0
COc1ccccc1-c1cn(CC[C@@H]2CC[C@H](NS(=O)(=O)c3ccccc3C)[C@@H](CO)O2)nn1
→ -8.8, -7.9, -19.4, 2.2
Cn1c(=O)c2[nH]c(CCCc3ccc([N+](=O)[O-])cc3)nc2n(C)c1=O
→ -0.5, -0.2, 11.9, 0.1
O=C(N[C@H]1CC[C@@H](CCn2cc(-c3ccccn3)nn2)O[C@@H]1CO)c1ccccc1
→ -1.5, 0.0, 3.4, 0.8
C[C@H](O)C#Cc1cnc2c(c1)C(=O)N([C@@H](C)CO)C[C@@H](C)[C@H](CN(C)CC1CCCC1)O2
→ -1.3, 8.1, 6.0, -1.6
CCNC(=O)[C@@H]1[C@@H](CO)[C@@H]2Cn3c(cccc3=O)[C@H]1N2C(=O)c1ccc(F)cc1
→ -29.6, 2.8, 9.6, -0.6

(listing goes on)
MLL AF4-AF9 inh | Ecoli rRNA inh | Ecoli rRNA inh OD600 | Ecoli rRNA inh RFP | Molecule
2.4 | -2.7 | -8.4 | 0.4 | CCC(=O)N1CC[C@@H]2[C@@H](CO)Nc3ccc(-c4ccc(F)cc4)cc3[C@@H]21
8.7 | -2.4 | 0.1 | 2.3 | C[C@H](CO)N1C[C@H](C)[C@@H](CN(C)C(=O)c2ccccc2)Oc2cc(/C=C/c3ccccc3)ccc2S1(=O)=O
-1.6 | 11.6 | 10.5 | -2.7 | CO[C@@H](CN(C)C(=O)C1CCOCC1)[C@H](C)CN([C@@H](C)CO)S(=O)(=O)c1ccccc1
-2.1 | 15.9 | 7.1 | 0.5 | Cc1ccccc1CNC(=O)c1csc([C@@H]2C[C@H](O)[C@@H](CO)O2)n1
1.5 | -15.1 | -32.5 | -2.5 | Cc1noc(C)c1S(=O)(=O)N1CCCc2nc(-c3ccccc3)ccc21
-6.4 | 13.1 | 17.8 | 7.2 | O=C(NCc1ccccc1)[C@H]1CCCN1C(=O)[C@H]1CCCN1C(=O)c1ccccc1C(F)(F)F
-4.2 | 6.6 | -3.2 | 12.3 | CCC(=O)N1CC(=O)N2[C@H](CO)[C@@H](c3ccc(C#Cc4cccc(F)c4)cc3)[C@@H]2C1
0.6 | -1.8 | -7.3 | -0.3 | COc1ccccc1CN1[C@H](CO)[C@@H]2c3ccccc3N(C(=O)C3CCOCC3)C[C@@H]21
0.8 | -3.9 | -5.2 | -2.0 | CO[C@H](CN(C)Cc1cc(F)ccc1F)[C@H](C)CN(C(=O)Nc1ccc(F)cc1)[C@H](C)CO
-1.7 | 7.7 | 16.9 | -1.3 | C/C=C/c1cnc2c(c1)C(=O)N([C@H](C)CO)C[C@H](C)[C@@H](CN(C)CC1CCOCC1)O2
-2.5 | -0.1 | -7.9 | -2.7 | O=C(C1CCC1)N1CC(=O)N2[C@H](C1)[C@@H](c1ccc(Br)cc1)[C@@H]2CO
1.2 | -3.2 | -5.0 | 6.1 | C/C=C/c1ccc([C@H]2[C@@H](CO)N3CCCCN(S(=O)(=O)c4ccccc4)C[C@@H]23)cc1
3.4 | -1.3 | 8.6 | 0.7 | C[C@@H]1CCCCO[C@H](CN(C)S(=O)(=O)c2cccs2)[C@H](C)CN([C@@H](C)CO)C(=O)c2cc(NC(=O)CCCN(C)C)ccc2O1
-2.7 | -5.9 | -15.4 | 3.1 | C[C@H](c1ccccc1)N1C[C@H](COCc2ccccc2)Oc2cc(N3CC[C@H](O)C3)ccc2S1(=O)=O
? | 8.8 | 6.3 | -2.3 | CC(=O)N(C)C[C@@H]1Oc2cc(C#CC(C)(C)O)ccc2S(=O)(=O)N([C@@H](C)CO)C[C@H]1C
0.2 | 1.8 | 2.2 | -2.7 | COCC(=O)N(C)C[C@@H]1Oc2cc(-c3cccnc3)ccc2S(=O)(=O)N([C@@H](C)CO)C[C@@H]1C
5.3 | 8.4 | -30.4 | 35.4 | CCc1nc2ccc(C(=O)NCC3CCCCC3)cn2c1N(CCC(C)C)CCN(C)C
-0.2 | 6.0 | 15.4 | -2.2 | C[C@@H]1CN([C@@H](C)CO)C(=O)c2cc(C#CCN(C)C)cnc2O[C@@H]1CN(C)C(=O)NC1CCCCC1
-2.8 | -2.0 | 3.8 | 2.8 | CN(C)Cc1cn(CC[C@@H]2CC[C@@H](NS(=O)(=O)c3ccccc3)[C@H](CO)O2)nn1
7.8 | 2.9 | 9.9 | 5.2 | CN1CCCCN2[C@H](CO)[C@H](c3ccc(C4=CCCC4)cc3)[C@H]2C1
1.2 | 0.7 | 3.8 | -4.9 | COCC(=O)Nc1ccc2c(c1)C(=O)N(C)C[C@H](OC)[C@@H](C)CN(C(=O)c1ccccc1)[C@@H](C)CO2
-1.0 | -1.0 | 9.0 | -1.3 | N#C[C@@H]1[C@H](c2ccccc2)[C@H](CO)N1S(=O)(=O)Cc1ccccc1
0.3 | -4.4 | -27.9 | 7.7 | Cc1noc(C)c1NC(=O)Nc1ccc2c(c1)C(=O)N([C@H](C)CO)C[C@@H](C)[C@H](CN(C)Cc1ccc(Cl)c(Cl)c1)OCCCC[C@@H](C)O2
-2.5 | -0.1 | -2.0 | 2.4 | COc1ccc(C(=O)NCc2ccc3c(c2)OCO3)cc1S(=O)(=O)N1CCCC1
2.7 | -3.4 | -5.1 | 0.1 | COc1ccc(S(=O)(=O)N(C)C[C@H]2Oc3ccc(NS(=O)(=O)c4c(C)noc4C)cc3CC(=O)N([C@H](C)CO)C[C@H]2C)cc1
-6.3 | 4.5 | 5.3 | -6.9 | CCS(=O)(=O)N1Cc2cc(C(=O)O)nc(-c3cccc(-c4ccc(C#N)cc4)c3)c2[C@H]1CCO
-2.0 | 7.2 | 16.8 | 0.6 | C[C@H](CO)N1C[C@H](C)[C@H](CN(C)CC2CCCCC2)Oc2ccc(NC(=O)Cn3cnnn3)cc2C1=O
-14.4 | 4.0 | -0.9 | 1.9 | CO[C@H]1CC[C@@H]2CCOc3c(C#N)cccc3C(=O)N(C)[C@@H](C)C(=O)N(C)C[C@H]1O2
-0.3 | 1.0 | -0.8 | 5.2 | O=C(N[C@H]1CC[C@H](CCn2cc(-c3ccccc3)nn2)O[C@@H]1CO)c1cnccn1
-14.3 | -3.6 | -3.8 | -0.7 | Cc1cc(C(=O)Nc2cccc3c2O[C@H](CN(C)S(=O)(=O)c2cccs2)[C@@H](C)CN([C@@H](C)CO)C3=O)n(C)n1
-10.5 | 25.4 | 19.0 | 2.4 | CCOC(=O)C1=CC[C@@H](c2ccccc2)N(S(=O)(=O)c2ccc(C)cc2)[C@H]1/C=C/c1ccccc1
1.0 | -1.2 | 5.9 | -1.2 | COc1ccc(NC(=O)Nc2ccc3c(c2)C(=O)N([C@@H](C)CO)C[C@@H](C)[C@H](CN(C)Cc2ccc(C(=O)O)cc2)OCCCC[C@@H](C)O3)cc1
2.2 | 1.2 | 4.1 | -1.5 | CC(=NNC(=S)N1CCCC1)c1ccccn1
0.0 | 0.0 | -2.1 | 3.5 | Cc1ccc(S(=O)(=O)N(C)C[C@H]2Oc3ccc(NC(=O)Cc4ccccc4)cc3CC(=O)N([C@H](C)CO)C[C@@H]2C)cc1
9.3 | 1.4 | -1.5 | -0.5 | COc1cccc(NC(=O)Nc2ccc3c(c2)C(=O)N(C)C[C@@H](OC)[C@@H](C)CN[C@@H](C)CO3)c1
-5.5 | 8.1 | -13.0 | 0.1 | N#Cc1ccc(-c2ccc3c(c2)[C@H]2[C@H](CCN2C(=O)C2CC2)[C@H](CO)N3)cc1
-1.6 | -0.4 | 3.8 | 0.5 | C[C@H](CO)N1C[C@H](C)[C@@H](CN(C)S(=O)(=O)c2ccccc2)Oc2ncc(C#CCN(C)C)cc2C1=O
5.5 | -15.3 | -49.0 | 17.2 | C[C@@H]1CN([C@@H](C)CO)C(=O)c2cc(NC(=O)c3ccncc3)ccc2O[C@H]1CN(C)Cc1ccc(Cl)c(Cl)c1
4.5 | 3.6 | -5.2 | -0.5 | COc1ccc2c3c(n(C)c2c1)[C@@H](CO)N(Cc1ccccc1)CC31CCN(C(=O)C2CC2)CC1
3.7 | -0.5 | -6.4 | -0.2 | C[C@@H]1CN([C@@H](C)CO)C(=O)Cc2cc(NC(=O)Nc3ccc(F)cc3)ccc2O[C@@H]1CN(C)S(=O)(=O)c1cccs1
-2.1 | -5.6 | -9.0 | 5.9 | CS(=O)(=O)c1ccc(Cl)c(NC(=O)CN2CCN(S(=O)(=O)/C=C/c3ccccc3)CC2)c1
4.3 | -4.9 | 4.3 | 0.2 | C[C@@H]1CCCCO[C@H](CN(C)C(=O)c2ccccc2)[C@H](C)CN([C@H](C)CO)C(=O)c2cc(NC(=O)c3ccccc3)ccc2O1
-0.5 | 2.6 | -1.7 | -0.9 | COc1ccc(NC(=O)N(C)C[C@H]2Oc3c(NC(=O)c4ccncc4)cccc3C(=O)N([C@@H](C)CO)C[C@H]2C)cc1
3.4 | -6.7 | -9.6 | -1.7 | C[C@@H]1CN([C@@H](C)CO)C(=O)c2cccc(NC(=O)NC3CCCCC3)c2O[C@H]1CN(C)Cc1ccc2c(c1)OCO2
0.6 | 3.2 | -3.5 | -0.4 | CN(C)CC(=O)Nc1ccc2c(c1)[C@@H]1C[C@@H](CC(=O)NCc3ccc4c(c3)OCO4)O[C@H](CO)[C@@H]1O2
-2.6 | 21.2 | 12.5 | 7.2 | CCN(C)C1CN(Cc2cn(Cc3ccc(C(F)(F)F)cc3)nn2)S(=O)(=O)C1 (configuration not stated)
4.9 | -3.5 | -9.5 | -2.6 | COc1cccc(S(=O)(=O)Nc2ccc3c(c2)[C@@H]2C[C@@H](CC(=O)NCc4ccccc4F)O[C@H](CO)[C@@H]2O3)c1
19.7 | 20.1 | -0.3 | 58.3 | CN1OC[C@@H]2CN(S(=O)(=O)c3cccc4ccccc34)[C@H](c3ccc(N4CCCCC4)cc3)C[C@@H]21
-0.9 | 6.9 | 11.4 | -1.5 | C[C@H]1CN([C@@H](C)CO)C(=O)c2cccc(NC(=O)CCCCCC(=O)Nc3ccccc3N)c2O[C@H]1CN(C)S(C)(=O)=O

Given with values under each structure: entries from further up.
Under each structure – MLL AF4-AF9 inh | Ecoli rRNA inh | Ecoli rRNA inh OD600 | Ecoli rRNA inh RFP
- O=C(N[C@H]1CC[C@H](CCn2cc(-c3ccccc3)nn2)O[C@@H]1CO)c1cnccn1
 : -0.3 | 1.0 | -0.8 | 5.2
- Cc1cc(C(=O)Nc2cccc3c2O[C@H](CN(C)S(=O)(=O)c2cccs2)[C@@H](C)CN([C@@H](C)CO)C3=O)n(C)n1
 : -14.3 | -3.6 | -3.8 | -0.7
- CCOC(=O)C1=CC[C@@H](c2ccccc2)N(S(=O)(=O)c2ccc(C)cc2)[C@H]1/C=C/c1ccccc1
 : -10.5 | 25.4 | 19.0 | 2.4
- COc1ccc(NC(=O)Nc2ccc3c(c2)C(=O)N([C@@H](C)CO)C[C@@H](C)[C@H](CN(C)Cc2ccc(C(=O)O)cc2)OCCCC[C@@H](C)O3)cc1
 : 1.0 | -1.2 | 5.9 | -1.2
- CC(=NNC(=S)N1CCCC1)c1ccccn1
 : 2.2 | 1.2 | 4.1 | -1.5
